# KDM4E inh: inhibitors of human JMJD2E histone demethylase; Potency, µM (highest dose often 57.1 µM), without a hit: at the top dose activity change, negative = inhibition, hits mostly inhibitors; JMJD2E catalytic domain, FDH-coupled NADH fluorescence (FDH is formaldehyde dehydrogenase); B2RXH2; hit rate 1.6% among 230,000; active = well fitted inhibition curve with a large enough effect, not every such curve was filed as active; inconclusive = small, poorly fitted or top-dose-only effect, or another doubt; inactive = no such curve, though single readings can be large or run the other way;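 note: 0% = wells with enzyme and -100% = buffer wells without enzyme; nearly all actives have a fitted effect of over 50% in size; many of its hits are not listed in these tables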
# LMNA splice mod: LMNA splicing modulation; HeLa LMNA splicing GFP/RFP minigene ratio, 48 h; Potency, µM (doses to about 46.1 µM), inactives show at the top dose ratio change, negative = inhibition, most hits filed as inhibitors; hit rate 0.01% among 200,000; active = well fitted inhibition curve with a large enough effect in the signal ratio, with a control signal flat, not every such curve was filed as active; inconclusive = small, poorly fitted or top-dose-only effect, or effect the other way, or a change in a side signal; the % refers to the signal ratio
#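 Read-out is the ratio of GFP to DsRed2 object intensity, acquired by 488 nm laser-scanning cytometry on HeLa lamin A-EGFP minigene reporter cells. Compound incubation 48 hrs at 37 °C in Opti-MEM with 2% FBS; DMSO 0.5% final.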
# GoLoco inh red: inhibitors of human Gai1-RGS12 GoLoco interaction (red fluorophore). Potency, µM (top dose mostly 61.6 µM), for the others: top-dose activity, negative = inhibition, hits mostly inhibitors. P63096. Gai1:RGS12 GoLoco peptide FP, rhodamine, 10 min. AID 880. hit rate 0.44% among 230,000; active = well fitted inhibition curve with a large enough effect, not every such curve was filed as active; inactive = no such curve, though single readings can be large or run the other way; note: nearly all actives have a fitted effect of over 30% in size; many of its hits are not listed in these tables
# RECQ1 inh: inhibitors of human RECQ1 DNA helicase; RECQ1 DNA unwinding, red fluorescence kinetic read; hit rate 0.54% among 240,000; P46063; Potency, µM (top dose mostly 57.3 µM), for inactives: at the highest dose activity, negative = inhibition, hits mostly inhibitors; AID 2549; active = well fitted inhibition curve with a large enough effect; inconclusive = small, poorly fitted or top-dose-only effect;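 note: plate controls were vehicle for no effect and no enzyme for full effect; nearly all actives have a fitted effect of over 30% in size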
# Target sequence (P46063 whole entry, looked up): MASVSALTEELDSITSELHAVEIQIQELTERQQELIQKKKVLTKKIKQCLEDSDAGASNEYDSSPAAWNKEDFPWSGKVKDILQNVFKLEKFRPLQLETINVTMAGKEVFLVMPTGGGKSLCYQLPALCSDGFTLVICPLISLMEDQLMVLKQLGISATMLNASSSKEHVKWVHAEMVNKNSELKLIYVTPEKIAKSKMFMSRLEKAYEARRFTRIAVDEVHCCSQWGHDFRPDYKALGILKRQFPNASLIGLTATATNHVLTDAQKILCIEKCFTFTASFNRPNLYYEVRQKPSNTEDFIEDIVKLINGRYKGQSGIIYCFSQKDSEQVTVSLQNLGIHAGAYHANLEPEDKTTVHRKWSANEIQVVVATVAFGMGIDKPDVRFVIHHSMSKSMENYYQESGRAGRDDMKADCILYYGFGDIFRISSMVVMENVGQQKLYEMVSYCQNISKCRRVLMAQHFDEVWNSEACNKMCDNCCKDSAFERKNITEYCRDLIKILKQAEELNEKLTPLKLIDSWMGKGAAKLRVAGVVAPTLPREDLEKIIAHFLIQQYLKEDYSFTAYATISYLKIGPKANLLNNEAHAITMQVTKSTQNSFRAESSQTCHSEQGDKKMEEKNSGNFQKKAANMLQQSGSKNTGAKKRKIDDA
#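 RECQ1T1 50 nM; forked duplex (20 bp + 30-nt ss tails) 200 nM, ATP 2 mM final; pH 8.0, 2 mM MgCl2, 2.5 ug/ml poly(dI-dC); 15 min compound preincubation; discontinuous kinetic read over 2 h at RT.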
# * marks the source's active call; other numbers are inactive results; i = inactive; u = inconclusive; x = no result given; & = joins results of further samples; ! = repeats disagree; [ ] = dose if it differs, or a comment. Unless noted, % is set by controls: 0 for no effect and ±100 for the full control effect; potency is the fitted concentration of half-maximal effect. The list is partial (hit frequency here may not be typical).
SMILES,KDM4E inh,LMNA splice mod,GoLoco inh red,RECQ1 inh
CCC(C)(C)C(=O)O[C@@H]1C[C@H](C)C=C2C=C[C@H](C)[C@@H](CC[C@H]3C[C@@H](O)CC(=O)O3)[C@H]21,4.6%[25.5 µM],u,3.5%[21.6 µM],-3.9%[25.9 µM]
C[C@H](C(=O)O)c1cccc(C(=O)c2ccccc2)c1,2.7%,x,1.0%&5.8%,u
O=C1OC(C(O)CO)C(O)=C1O (stereo unspecified),-6.9%,x,-0.6%,-1.6%
OC(CNCC1CCCO1)Cn1c2ccc(Cl)cc2c2cc(Cl)ccc21 (stereo unspecified),-21.6%,u,9.6%,-4.6%
O=c1c(-c2ccc(O)cc2)coc2cc(O)ccc12,u,u,7.8%&-8.1%&-4.1%&3.0%&1.0%&-2.5%&1.0%,-2.3%&-1.2%&6.3%&3.0%&2.9%
CN/C(=C/[N+](=O)[O-])NCCSCc1ccc(CN(C)C)o1,-5.9%,4.2%,6.7%,15.6%
CCC(C)(C)C(=O)OC1CC(C)C=C2C=CC(C)C(CCC3CC(O)CC(=O)O3)C21 (stereo unspecified),u,x,-21.9%,i
NC(=O)c1cccnc1,16.2%,0.4%&-8.1%,-14.4%&8.2%,-11.5%&-14.5%&-4.0%
COC(=O)[C@H]1[C@@H]2C[C@H]3c4[nH]c5ccccc5c4CCN3C[C@@H]2CC[C@@H]1O,2.5%,x,4.6%,-6.6%
CC1(C)SC2C(NC(=O)C(N)c3ccccc3)C(=O)N2C1C(=O)O (stereo unspecified),u,x,4.2%,10.9%
CC(N)(Cc1ccc(O)cc1)C(=O)O (stereo unspecified),-0.5%,-5.3%,-31.3%,i
CC12CCC3c4ccc(O)cc4CCC3C1CCC2O (stereo unspecified),x,x,x,2.7%

# Filtered by structure: those above with a carbonyl joined to an NH by a bond outside any ring
SMILES,KDM4E inh,LMNA splice mod,GoLoco inh red,RECQ1 inh
NC(=O)c1cccnc1,16.2%,0.4%&-8.1%,-14.4%&8.2%,-11.5%&-14.5%&-4.0%
CC1(C)SC2C(NC(=O)C(N)c3ccccc3)C(=O)N2C1C(=O)O (stereo unspecified),u,x,4.2%,10.9%

# Single records, as listed above. Values in the order: KDM4E inh	LMNA splice mod	GoLoco inh red	RECQ1 inh
# `CC12CCC3c4ccc(O)cc4CCC3C1CCC2O` (stereo unspecified) is entered as x	x	x	2.7%
# `O=C1OC(C(O)CO)C(O)=C1O` (stereo unspecified) is entered as -6.9%	x	-0.6%	-1.6%

# Arranged by value in RECQ1 inh (falling): five of the compounds above.
compound,RECQ1 inh
CN/C(=C/[N+](=O)[O-])NCCSCc1ccc(CN(C)C)o1,15.6%
CC1(C)SC2C(NC(=O)C(N)c3ccccc3)C(=O)N2C1C(=O)O (stereo unspecified),10.9%
CC12CCC3c4ccc(O)cc4CCC3C1CCC2O (stereo unspecified),2.7%
O=C1OC(C(O)CO)C(O)=C1O (stereo unspecified),-1.6%
COC(=O)[C@H]1[C@@H]2C[C@H]3c4[nH]c5ccccc5c4CCN3C[C@@H]2CC[C@@H]1O,-6.6%

# The list goes on:
SMILES,KDM4E inh,LMNA splice mod,GoLoco inh red,RECQ1 inh
C[N+]1(C)CC[C@@H](OC(=O)[C@@](O)(c2ccccc2)C2CCCC2)C1,1.1%[25.5 µM],9.6%,4.5%[21.6 µM],-6.9%[25.9 µM]
COC(=O)[C@H]1[C@H]2CC3c4[nH]c5ccccc5c4CCN3C[C@@H]2CC[C@@H]1O (stereo partly specified),-2.7%,u,7.7%&13.7%,-8.6%&4.1%
CC1(C)S[C@@H]2[C@H](NC(=O)[C@H](N)c3ccccc3)C(=O)N2[C@H]1C(=O)O,u,-11.2%&-5.5%,11.2%&1.2%&-9.8%&10.4%,20µM*!
COC(=O)[C@@H]1[C@H]2C[C@H]3c4[nH]c5ccccc5c4CCN3C[C@@H]2CC[C@@H]1O,-4.1%,u,12.2%,i

# Sorted by count of non-hydrogen atoms (high to low): part of the list above.
SMILES,KDM4E inh,LMNA splice mod,GoLoco inh red,RECQ1 inh
COC(=O)[C@@H]1[C@H]2C[C@H]3c4[nH]c5ccccc5c4CCN3C[C@@H]2CC[C@@H]1O,-4.1%,u,12.2%,i
CC1(C)S[C@@H]2[C@H](NC(=O)[C@H](N)c3ccccc3)C(=O)N2[C@H]1C(=O)O,u,-11.2%&-5.5%,11.2%&1.2%&-9.8%&10.4%,20µM*!
CC(N)(Cc1ccc(O)cc1)C(=O)O (stereo unspecified),-0.5%,-5.3%,-31.3%,i

# Screening data from PubChem BioAssay.
